T cruzi repl – T. cruzi replication inhibition; T. cruzi beta-gal in NIH3T3, luminescence, 90 h; inhibition, % (test concentration not listed); hit rate 1.4% among 300,000; AID 1885;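 active = mean inhibition across valid replicates above about 55%, limit read from the data; inconclusive = mean below that limit but half or more replicates reach it; inactive = mean below it, under half of replicates reach it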;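 also: signal also drops with host cell toxicity which is not excluded here; 0% = plate median of DMSO wells and 100% = zero luminescence signal; higher percent means less beta-gal luminescence so fewer parasites; stock transfer was 50 nL into about 50 µL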
Bfl-1 A1 inh – inhibitors of the anti-apoptotic protein A1, read as caspase activation. MEF A1-2A-BIM cells, Caspase-Glo 3/7 luminescence, 3 h; percent of clofoctol response, vehicle zero. hit rate 0.066% among 330,000. caspase activation, % (concentration not given with the values);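 active = over half of replicate activation scores above 10%, or exactly half above 10 with the replicate mean above 10; inconclusive = replicate mean below 10 yet half the replicates above 10; inactive = over half of replicates below 10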;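 also: wells of about 30 µL received 50 nL stock; many hits fall short of the cut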
Vif A3G – HIV-1 Vif–A3G interaction blockers – biochemical, TR-FRET, GST-Vif 1-94, biotin-A3G peptide, dose response retest, primary screen (AID 1117319). one-dose inhibition, %; IC50 in µM for titrated hits. TR-FRET GST-Vif / biotin-A3G peptide binding; higher % means a stronger effect; test concentration not given here; strong numbers were not always called active. hit rate 0.57% among 260,000;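 active = above the screen mean plus three standard deviations and confirmed in dose response; inconclusive = results disagree or hit not tested in dose response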;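 also: Vif residues 1-94 fused to GST binding biotinylated APOBEC3G peptide 110-148; 0% = full assay without inhibitor and 100% = GST in place of GST-Vif; retest series ran down from 100 µM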
rRNA inh HTS – inhibitors of bacterial rRNA selective over humanized ribosomes. AID 720706. hit rate 1.6% among 350,000. GFP signal change (wild-type ribosome), % (concentration not given with the values). E. coli WT GFP vs humanized-ribosome RFP mutants, fluorescence, 24 h; hits give low values; DMSO median 0, no signal -100;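 active = significant combined selectivity score with lowered wild-type GFP, culture density cut under 30%, mutant RFP and density less affected; inactive = any of these conditions unmet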; also: one replicate is shown; some compounds called inactive have numbers as strong as hits
Beta apoptosis – beta cell apoptosis inhibition | INS-1E cytokine-induced death, ATP luminescence, 48 h; percent of positive-control rescue, neutral wells zero | protection from apoptosis, % (concentration not given with the values) | hit rate 0.8% among 300,000 | AID 435005;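 active = all replicates at 75% or more, or half of them and the mean; inconclusive = half reach 75% but not the mean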;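 also: 0% = cytokine-treated negative control wells and 100% = positive control rescue; higher means more ATP so stronger rescue from cytokine killing; wells of about 40 µL received 100 nL stock; the first replicate is given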
AF4-AF9 inh – blocks AF4 peptide binding to human AF9. P42568. AlphaScreen, biotin-AF4 peptide binding to FLAG-AF9. inhibition, % at 10 µM. hit rate 0.47% among 350,000;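 active = every replicate reaching a set inhibition limit, whatever the replicate mean, cut at about 25% in these data; inconclusive = mean inhibition reaches that limit but some replicates miss it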;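 also: 0% = plate neutral control median and 100% = total signal loss; the record names both 10 and 1 µM as test concentration; the first replicate is given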
Target sequence (P42568 whole entry, looked up): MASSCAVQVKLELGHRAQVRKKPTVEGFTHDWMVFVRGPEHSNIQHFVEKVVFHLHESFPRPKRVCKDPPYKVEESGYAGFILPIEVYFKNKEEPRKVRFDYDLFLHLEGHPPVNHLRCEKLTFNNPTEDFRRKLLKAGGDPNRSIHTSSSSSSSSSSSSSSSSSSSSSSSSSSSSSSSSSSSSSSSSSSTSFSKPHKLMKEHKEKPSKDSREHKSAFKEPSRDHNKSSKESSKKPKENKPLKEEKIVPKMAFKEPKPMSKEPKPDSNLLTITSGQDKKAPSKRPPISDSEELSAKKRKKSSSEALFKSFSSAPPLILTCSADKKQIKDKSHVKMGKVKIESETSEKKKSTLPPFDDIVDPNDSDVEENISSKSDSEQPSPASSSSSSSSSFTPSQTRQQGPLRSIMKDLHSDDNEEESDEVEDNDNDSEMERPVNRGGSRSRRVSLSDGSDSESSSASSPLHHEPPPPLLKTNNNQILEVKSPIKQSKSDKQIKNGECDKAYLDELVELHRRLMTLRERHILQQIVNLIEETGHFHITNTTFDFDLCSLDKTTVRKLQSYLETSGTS
Calb FLC – C. albicans growth modulation with fluconazole; C. albicans CaCi-2 (fluconazole-resistant clinical isolate) + fluconazole, Alamar Blue growth, 48 h; growth inhibition, % (test concentration not listed); hit rate 0.57% among 300,000; AID 1979;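 active = most replicates above 75%; inconclusive = exactly half above 75%; inactive = most below 75%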;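 also: all wells also contain fluconazole at 8 µg/ml as a sub-toxic cotreatment; 0% = median of DMSO wells and 100% = median of geldanamycin control wells; wells of about 8 µL received 7.5 nL stock; the first replicate is given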
RanGTP-Impb inh – disruptors of Ran-importin-beta complex formation – biochemical, FRET, CFP-Ran, YFP-importin-beta, homogeneous, primary screen | cell-free CFP-Ran/YFP-importin-beta FRET ratio | inhibition, % (test concentration not listed) | hit rate 1.1% among 300,000 | AID 2216;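 active = most replicates above 15%; inconclusive = exactly half above 15%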;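 also: 0% = DMSO wells and 100% = Ran loaded with GDP instead of GTP; wells of about 40 µL received 100 nL stock; the first replicate is given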
rRNA inh HTS OD600 – recorded beside rRNA inh HTS, whose call it bears; OD600 change, %; measured here: OD600 growth;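 optical density of the mix in the first replicate; 0 = DMSO median and -100 = no signal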
rRNA inh HTS RFP – second read-out of rRNA inh HTS, no call of its own (marks repeat the call); RFP signal change, %; measured here: RFP humanized mutant strains;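 first replicate; 0 = DMSO median and -100 = no signal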
Starred values were filed as active, the others as inactive; ? = inconclusive; / = no result given; & = joins results of further samples.

Order of values: T cruzi repl	Bfl-1 A1 inh	Vif A3G	rRNA inh HTS	rRNA inh HTS OD600	rRNA inh HTS RFP	Beta apoptosis	AF4-AF9 inh	Calb FLC	RanGTP-Impb inh
- O=S1(=O)N=C(Nc2ccc(S(=O)(=O)N3CCCCC3)cc2)c2ccccc21
→ -4	0.3	29%	/	/	/	2	/	-4	2.3
- Cc1cccc(N2CN=c3s/c(=C\c4ccccn4)c(=O)n3C2)c1
→ -6	-1.0	/	/	/	/	-3	0.1	2	1.4
- COc1cccc(CC2(CO)CCN(C(=O)NC3CCCCC3)CC2)c1
→ -10	0.2	0%	-12	-3	-14	9	-0.8	6	3.4
- CCN1CCN(C(=O)c2sc3nc(C)nc(N4CCC(C)CC4)c3c2C)CC1
→ /	0.2	0%	/	/	/	-8	/	-1	15
- O=c1oc2ccccc2c(NC2CCCCC2)c1NS(=O)(=O)c1ccc(F)cc1
→ 8	-0.4	-4%	-23	-24	1.5	2	-0.9	20	?
- CC(=O)NCCc1ccc(C(=O)COC(=O)C2CCCCC2)cc1
→ /	-1.7	-2%	4	-11	-2.6	-2	-2.4	/	/
- CCCN(C(=O)c1ccco1)c1nnc(-c2ccncc2)s1
→ 8	-1.1	-2%	/	/	/	-4	/	6	3.9
- O=C(O)c1ccc(-n2c(/C=C/c3cccc([N+](=O)[O-])c3)nc3ccccc3c2=O)cc1
→ -7	-0.5	/	12	13	-1.7	-7	2.2	18	?
- O=C(Cc1ccccn1)c1ccc(Cl)cc1
→ -12	-9.2	/	5	-1	-2.5	-7	1.4	1	4.1
- CCC(CO)NCc1ccc(OC2CCCC2)cc1 (centres undefined)
→ 17	0.4	-2%	/	/	/	/	/	29	2.4

Additional entries follow.
Order of values: T cruzi repl	Bfl-1 A1 inh	Vif A3G	rRNA inh HTS	rRNA inh HTS OD600	rRNA inh HTS RFP	Beta apoptosis	AF4-AF9 inh	Calb FLC	RanGTP-Impb inh
- O=C(COC(=O)c1ccccc1C(=O)OCC(=O)NCCc1c[nH]c2ccccc12)NCCc1c[nH]c2ccccc12
→ -18	0.6	/	-6	-1	0.3	-3	-6.7	6	6.1
- CCOc1ccc(C(NC(=O)/C=C/c2ccco2)c2ccc(OC)c(OC)c2)cc1 (centres undefined)
→ 13	-0.3	/	7	10	6.0	-14	7.0	-4	-2.6
- COc1cc(OC)cc(-c2nnc(Sc3ccc(C=O)cc3[N+](=O)[O-])o2)c1
→ 3	-0.2	8%	/	/	/	-1	/	4	-4.8
- C=CCn1c(O)c(N=NC(=S)Nc2ccc(OC)c(Cl)c2)c2ccccc21
→ 57*	-0.5	-5%	4	4	0.8	57	5.9	45	0.7
- CCOC(=O)CSc1nc(C2CC2)cc(-c2ccc(Cl)cc2)c1C#N
→ ?	-1.6	/	18	3	0.4	0	-1.2	-3	-2.8
- COc1ccc(C)cc1S(=O)(=O)Nc1cccnc1
→ -7	0.2	-1%	/	/	/	/	/	-5	2.1
- O=C(c1ccsc1)N1CCCC(N2CCN(c3ccccc3F)CC2)C1 (centres undefined)
→ 1	1.3	-5%	3	7	0.4	2	-2.9	-10	1.0
- O=C(O)c1ccccc1N1C(=O)C2C3c4ccccc4C(Br)(c4ccccc43)C2C1=O (centres undefined)
→ -19	-0.9	/	-9	-5	-1.2	-1	-17	0	1.3
- COCCCNC(CC(=O)Nc1ccc(OC)cc1OC)C(=O)O (centres undefined)
→ -14	0.1	0%	/	/	/	-4	/	-16	-1.0
- CC(C)CC(OC(=O)CC1Sc2ccccc2NC1=O)C(=O)NC1CCCC1 (centres undefined)
→ -8	0.5	/	-24	-61	-2.1	1	0.2	5	-3.3

Going on with the list.
Order of values: T cruzi repl	Bfl-1 A1 inh	Vif A3G	rRNA inh HTS	rRNA inh HTS OD600	rRNA inh HTS RFP	Beta apoptosis	AF4-AF9 inh	Calb FLC	RanGTP-Impb inh
- Cc1ccc(NC(=O)C2CCN(S(=O)(=O)c3cccs3)CC2)cc1C
→ 23	0.0	-3%	/	/	/	-4	/	7	5.3
- Cc1cc(=O)[nH]c2c(C)cc(S(=O)(=O)N3CCOCC3)cc12
→ 0	-0.9	1%	1	0	-0.3	-2	-0.6	29	3.6
- CC1CCCC(NC(=O)c2cc(S(=O)(=O)N3CCOCC3)ccc2F)C1C (centres undefined)
→ -5	0.1	/	1	12	2.0	-4	-1.8	33	0.2
- Cc1cccc(NC(=O)CN2C(=O)COc3ccc(Cl)cc32)c1C
→ 5	1.0	-1%	3	2	1.1	2	-1.5	-7	-1.0
- Cc1nn(-c2ccccc2)c(C)c1S(=O)(=O)O
→ -1	0.0	/	6	21	-0.1	-7	-2.0	-8	-0.3
- CCOc1ccc(S(=O)(=O)N2CCC(C(=O)Nc3cccc(NC(C)=O)c3)CC2)cc1
→ 21	0.0	/	0	-12	1.5	-4	-7.0	11	1.3
- Cc1ccc(OC(F)F)c(NC(=O)Nc2ccc3c(c2)OCO3)c1
→ 24	1.1	/	-8	-13	6.4	-2	1.0	-4	3.4
- COc1ccc(N(CC(=O)NCc2ccco2)S(=O)(=O)c2ccc(OC)c(OC)c2)cc1
→ -4	-7.9	5%&-4%	/	/	/	-3	/	-30	6.3
- COC(=O)c1ccc(C(=O)OC)c(NS(C)(=O)=O)c1
→ -4	0.8	-5%	/	/	/	10	/	-3	-0.4
- Nc1nc(NCc2ccco2)nc(Nc2ccccc2)c1[N+](=O)[O-]
→ -2	0.0	30%	/	/	/	-3	0.7	26	2.7

Next part:
Order of values: T cruzi repl	Bfl-1 A1 inh	Vif A3G	rRNA inh HTS	rRNA inh HTS OD600	rRNA inh HTS RFP	Beta apoptosis	AF4-AF9 inh	Calb FLC	RanGTP-Impb inh
- O=c1cc(N2CCN(c3ccccc3)CC2)[nH]c(=O)n1C1CCCCC1
→ -16	0.3	3%	/	/	/	-28	/	-9	4.6
- COc1ccc(C(=O)Nc2nnc(-c3cccs3)s2)cc1
→ 11	-6.1	-1%	/	/	/	-7	/	-1	-0.2
- O=C(Cn1cccc1C(=O)c1ccccc1)NCc1cccc(Cl)c1
→ 6	0.2	-1%	17	9	4.5	2	-1.9	0	0.4
- COc1cccc(/C=N/NC(=O)c2nc(-c3ccccc3)cc(-c3ccccc3)n2)c1
→ 7	0.0	0%	/	/	/	/	/	0	-4.8
- O=C(N/C(=C/c1ccco1)C(=O)N1CCOCC1)c1ccccc1Br
→ -13	-0.3	10%	28	16	4.1	/	-0.2	-10	2.1
- Cc1ccccc1NS(=O)(=O)c1ccc(C2CNC(=O)C2)cc1 (centres undefined)
→ 5	-0.6	-2%	/	/	/	-2	/	4	0.1
- N#Cc1cccc(NS(=O)(=O)c2ccc(S(=O)(=O)N3CCOCC3)cc2)c1
→ /	1.0	-5%	-8	9	3.9	-4	-1.8	/	/
- COc1ccc(NC(C)=O)cc1C
→ -13	0.6	2%	16	12	5.4	-1	-2.8	7	1.5
- CCC(CC)N=C1NS(=O)(=O)c2cc([N+](=O)[O-])ccc21
→ ?	0.2	32%	3	6	-0.6	7	-1.1	-4	-0.9
- C=C(C)c1cccc(C(C)(C)NC(=O)N2CCOCC2)c1
→ -5	0.7	1%	/	/	/	-3	/	0	0.9

Next records follow:
Order of values: T cruzi repl	Bfl-1 A1 inh	Vif A3G	rRNA inh HTS	rRNA inh HTS OD600	rRNA inh HTS RFP	Beta apoptosis	AF4-AF9 inh	Calb FLC	RanGTP-Impb inh
- CCC(C)(C)n1nnnc1C(c1ccc(C)cc1)N(Cc1ccco1)Cc1cccs1 (centres undefined)
→ 55*	1.4	-2%&0%	/	/	/	14	/	1	0.5
- Cc1ccc(NC(=O)COC(=O)C2CC(=O)N(Cc3ccccc3)C2)cc1F (centres undefined)
→ -6	0.5	2%	-7	0	5.4	1	-0.7	1	-5.9
- O=C(NCCN1CCCC1)c1ccc2c(c1)N(Cc1ccc(F)cc1)C(=O)c1ccccc1S2=O (centres undefined)
→ -35	0.2	-4%	5	4	3.1	-6	6.3	3	-0.5
- COc1ccc2nc(NC(=O)C3CCCN(S(=O)(=O)c4cccc5nonc45)C3)sc2c1 (centres undefined)
→ 26	0.3	-1%&11%	/	/	/	12	/	10	-2.6
- O=C(c1ccc2c(c1)OCCO2)C1CCN(S(=O)(=O)c2ccc(F)cc2)CC1
→ 3	-0.6	0%	/	/	/	0	/	18	/
- Nc1cccc2c(=O)c3ccccc3[nH]c12
→ -2	-0.2	/	10	-30	30	7	0.7	32	64*
- Cc1ccc(C(=O)NC(=S)NCc2cccnc2)cc1C
→ 28	-0.7	2%	-31	-26	-0.5	16	2.0	18	0.0
- Nc1nc(NC(=O)c2ccc(Cl)cc2)nn1-c1ccccc1
→ -7	1.7	-3%	/	/	/	0	3.4	-5	-3.2
- COc1ccccc1CN1[C@@H](CC(=O)O)c2cc(F)ccc2S1(=O)=O
→ -10	-0.3	/	9	17	-3.0	3	-5.9	-2	0.4
- Cn1cc(C(=O)N/N=C/c2c(O)ccc3ccccc23)ccc1=O
→ 37	0.2	-1%	-3	2	2.0	93*	24	36	13

Next section.
Order of values: T cruzi repl	Bfl-1 A1 inh	Vif A3G	rRNA inh HTS	rRNA inh HTS OD600	rRNA inh HTS RFP	Beta apoptosis	AF4-AF9 inh	Calb FLC	RanGTP-Impb inh
- O=C(CSc1nc2ccccc2c(=O)[nH]1)N1CCN(S(=O)(=O)c2ccccc2)CC1
→ -10	0.2	-19%	19	12	-6.9	2	1.2	6	1.1
- Cc1ccc(CNS(=O)(=O)c2c(C)[nH]c(=O)[nH]c2=O)cc1
→ -2	-1.4	-2%	14	6	2.6	-8	-1.7	3	-1.9
- OC1(c2ccc3ccccc3c2)CCN(Cc2ccccc2)C1 (centres undefined)
→ 40	-0.4	-2%	/	/	/	0	/	-6	-0.8
- COc1ccc(-n2c(NCCN(C)C)nc3sc4c(c3c2=O)CCCCC4)cc1
→ /	1.1	0%	-14	-34	9.1	4	0.2	-13	2.5
- COC(OC)c1ccnc(-c2ccc(OC(=O)c3ccccc3)cc2)n1
→ 14	0.3	-4%	-32	-47	-4.8	-3	-3.9	11	?
- O=C(CSCc1cccc(Br)c1)N/N=C/c1ccc2c(c1)OCO2
→ 4	-1.2	-3%	/	/	/	-1	/	-11	-0.8
- O=C(O)C1Cc2ccccc2CN1S(=O)(=O)c1ccccc1 (centres undefined)
→ -14	0.0	?	3	5	15	-8	-4.9	-1	?
- Cc1ccc(S(=O)(=O)N2CCN(C(=O)CN3CCCC3)C2)cc1
→ -4	0.3	2%	/	/	/	-6	/	4	7.1
- O=C(O)c1cc(-c2ccccc2Cl)n[nH]1
→ -7	0.8	2%	/	/	/	1	/	2	-2.2

A portion of the library; rates above refer to the full screens.
